GIRK2 activ = GIRK2 channel activation; calls only for hits at 25 µM; HEK293-GIRK2 thallium flux, Thallos fluorescence; 0.05% of 63,000 active; P48051;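 active means among the strongest 0.2% of first-round signals and kept after retests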;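 further: first round at about 10 µM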
Target sequence (P48051 whole entry, looked up): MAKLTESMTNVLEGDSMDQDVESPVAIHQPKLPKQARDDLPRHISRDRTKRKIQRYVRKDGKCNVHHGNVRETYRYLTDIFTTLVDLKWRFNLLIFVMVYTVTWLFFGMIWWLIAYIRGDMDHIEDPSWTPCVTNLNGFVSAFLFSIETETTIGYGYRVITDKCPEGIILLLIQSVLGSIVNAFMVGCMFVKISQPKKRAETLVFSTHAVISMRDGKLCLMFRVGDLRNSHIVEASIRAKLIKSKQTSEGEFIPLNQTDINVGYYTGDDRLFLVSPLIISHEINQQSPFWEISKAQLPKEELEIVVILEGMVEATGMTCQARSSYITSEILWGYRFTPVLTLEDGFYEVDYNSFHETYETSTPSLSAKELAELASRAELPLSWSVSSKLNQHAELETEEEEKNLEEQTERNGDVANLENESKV
Calls only; i = inactive. Only part of the results is shown; count on the stated rates, not on these rows.

Preview:
SMILES | GIRK2 activ
OCCCc1nc2ccccc2n1CCOc1ccccc1 | i
CNC(=O)C(=O)Nc1cc(Cl)ccc1C#N | i
COc1ccc(C2(CNC(=O)C3(c4ccccc4)CCOCC3)CCOCC2)cc1 | i
O=C(NCCn1ncccc1=O)c1c(F)cccc1F | i
Cc1cc(C(=O)N2CCC3(CC2)OCCCO3)no1 | i
COc1cccc(N2C(=S)NC3CC2(C)Oc2ccccc23)c1 (stereo not given) | i
CC(=O)Nc1ccc(S(=O)(=O)NCC(O)c2ccoc2)c(C)c1 (stereo not given) | i

This part in full, previewed entries included:
SMILES | GIRK2 activ
OCCCc1nc2ccccc2n1CCOc1ccccc1 | i
CNC(=O)C(=O)Nc1cc(Cl)ccc1C#N | i
COc1ccc(C2(CNC(=O)C3(c4ccccc4)CCOCC3)CCOCC2)cc1 | i
O=C(NCCn1ncccc1=O)c1c(F)cccc1F | i
Cc1cc(C(=O)N2CCC3(CC2)OCCCO3)no1 | i
COc1cccc(N2C(=S)NC3CC2(C)Oc2ccccc23)c1 (stereo not given) | i
CC(=O)Nc1ccc(S(=O)(=O)NCC(O)c2ccoc2)c(C)c1 (stereo not given) | i
O=C(NCc1ccccc1)N1CCN(CC(O)c2cccs2)CC1 (stereo not given) | i
Cc1ccc(NC(=O)CN2C(=O)NC3(CCCCC3C)C2=O)c(C)c1 (stereo not given) | i
COc1ccc(C)cc1NC(=O)c1csc(Nc2ncccn2)n1 | i
O=S(=O)(c1ccc(F)cc1)N1CCN(c2ccc(-n3cccc3)nn2)CC1 | i
CSc1cccc(C(=O)N(Cc2cccnc2)c2nc3ccc(S(C)(=O)=O)cc3s2)c1 | i
COc1ccc2c(c1)c(CC(=O)Nc1cccc(I)c1)c(C)n2C(=O)c1ccc(Cl)cc1 | i
Cc1noc(C)c1CCC(=O)N1CC(c2nc(-c3ccc[nH]c3=O)no2)C1 | i
O=C(C1COCC(=O)N1Cc1cccs1)N1CCCC1 (stereo not given) | i
COc1ccccc1C(=O)N1CCN(S(=O)(=O)C2CC2)CC1 | i
Cn1nnnc1SCC(=O)N1CCN(c2ccc(-c3ccccn3)nn2)CC1 | i
O=C(/C=C/c1ccccc1)N1CCN(c2nc(N3CCOCC3)nc(-n3ccnc3)n2)CC1 | i
COc1ccc(CNC(=O)Cn2c(=O)nc(-c3ccccc3F)c3cc(Cl)ccc32)cc1 | i
Cn1c(=O)c2c(nc(SCC(N)=O)n2Cc2ccccc2)n(C)c1=O | i
CCOc1cc(C(=O)Nc2ccc3c(c2)CCC(=O)N3C)cc(OCC)c1OCC | i
Cc1cc(C)c(NC(=O)c2c(C)cc(C)cc2C)c(C)c1 | i
O=C(NCCc1ccccc1)NCCN1CCN(C(=O)c2ccsc2)CC1 | i
Cn1c(=O)c2cc(C(=O)NCc3ccccc3)n(CC3CCCO3)c2n(C)c1=O (stereo not given) | i

Another view of 4 compounds above.
GIRK2 activ,Compound
i,Cc1ccc(NC(=O)CN2C(=O)NC3(CCCCC3C)C2=O)c(C)c1 (stereo not given)
i,COc1ccc(C)cc1NC(=O)c1csc(Nc2ncccn2)n1
i,O=S(=O)(c1ccc(F)cc1)N1CCN(c2ccc(-n3cccc3)nn2)CC1
i,CSc1cccc(C(=O)N(Cc2cccnc2)c2nc3ccc(S(C)(=O)=O)cc3s2)c1

Next section.
SMILES | GIRK2 activ
Cc1cc(C)cc(NC(=O)Cn2cnc3c(sc4cccc(F)c43)c2=O)c1 | i
COc1cccc(/C=C2\Oc3cc(OCC(=O)NN)ccc3C2=O)c1OC | i
Cn1nc(N2CCC(C(=O)Nc3nc(-c4ccccn4)cs3)CC2)ccc1=O | i
O=c1cc(CSc2nccn3nc(-c4ccccc4)cc23)nc2ccccn12 | i
COC(=O)c1c(NCc2ccc(SC)cc2)c2cccc(Cl)c2[nH]c1=O | i
C=CCNC(=O)Nc1cccc(-c2cnc3n2CCC3)c1 | i
O=C(O)c1ccc(-n2ncc(N3CCCCC3)c(Cl)c2=O)cc1 | i
CS(=O)(=O)NC1CC(=O)N(C2CC2)C1 (stereo not given) | i
Cc1cc2ncn(CC3CCN(C(=O)CN4C(=O)CCC4=O)CC3)c2cc1C | i
CS(=O)(=O)N1CCC(c2nn(CC(=O)Nc3cc(F)ccc3F)c(=O)n2-c2cccs2)CC1 | i
COc1ccc(CCC(=O)NCCc2csc(-n3nc(C)cc3C)n2)cc1 | i
Cc1cc(C)n(CC2CCN(S(=O)(=O)c3cccnc3)CC2)n1 | i
FC(F)(F)c1nc2ccccc2n1CC1CCN(Cc2ccccn2)CC1 | i
O=C(Nc1nc2c(s1)C(=O)CCC2)c1cc2n(n1)CCCO2 | i
Brc1ccc2c(c1)C=C(c1nnc(-c3ccccn3)o1)CO2 | i
O=C(O)CCC(=O)Nc1ccccc1SC(F)(F)F | i
Cc1nc(SCc2nc(-c3ccccc3OCc3ccccc3)no2)[nH]c(=O)c1C | i
Cn1c(N2CCN(C(=O)NCc3ccc(F)cc3)CC2)nc2ccccc21 | i
COc1cc(C(=O)Nc2nnc(-c3ccc(C)cc3C)o2)cc(OC)c1OC | i
NS(=O)(=O)c1ccc(Nc2ncc(-c3ccccc3)o2)cc1 | i
Cc1nnc(C2CCN(C(=O)c3cc(-c4ccc(F)cc4)n[nH]3)CC2)s1 | i
CSc1ccc2nc(N3CCN(C(=O)NCc4cccs4)CC3)sc2c1 | i
Cc1cc(C)n(-c2nc(CCNC(=O)c3cccc(N(C)C)c3)cs2)n1 | i
Nc1nc(SCC(=O)Nc2ccc(Oc3ccccc3)cc2)ncc1S(=O)(=O)c1cccs1 | i
CC(=O)c1ccc(NC(=O)CN2CC(c3nc(-c4ncccn4)no3)C2)cc1 | i
CCN(CC)C(=O)CSc1nc2cc(OC)c(OC)cc2c2nc(-c3ccc([N+](=O)[O-])cc3)nn12 | i
Cc1nnc(C2CCCN(C(=O)c3snnc3C)C2)s1 (stereo not given) | i
Cc1cc(C(=O)NC2CCCC(OC(=O)Nc3ccc(F)cc3)C2)c(C)o1 (stereo not given) | i
CN(C)c1cccc(C(=O)NC2CCN(C(=O)c3cc(-c4ccc(F)cc4)n[nH]3)CC2)c1 | i
COc1ccc(Nc2cc(C(=O)N3CCSCC3)nc3c(OC)cccc23)cc1 | i
Cc1cc(Nc2ccc(NC(=O)c3snnc3C)cc2)nc(N2CCCC2)n1 | i
O=C(NCCn1cnc(-c2ccc(F)cc2)cc1=O)c1ccc2ccccc2n1 | i
Cc1nc(-c2ccc(C(F)(F)F)cc2)sc1C(=O)NCc1ccc(OC(C)(C)C(=O)O)cc1 | i
COc1ccc2c(c1)c1c(c(=O)n(Cc3ccccc3)c(=O)n1CC(=O)Nc1ccc(C)c(C)c1)n2C | i
CCOc1ccc2nc(N(CCN3CCOCC3)C(=O)c3ccc(S(C)(=O)=O)cc3)sc2c1 | i
O=C(CSCc1ccccc1)Nc1ccc(-n2nnc(C(=O)NCC(F)(F)F)n2)cc1 | i
COC(=O)N1CCC(CNC(=O)/C=C/c2cc(OC)c(OC)c(OC)c2)CC1 | i
CC1CCCN(S(=O)(=O)c2cccc([N+](=O)[O-])c2)C1 (stereo not given) | i
C/C=C/c1ccc(OCC(O)CN2CCN(c3ccccc3OC)CC2)c(OC)c1 (stereo not given) | i
Cc1ccc(NC(=O)CSc2nnc(N3CCN(C)CC3)s2)cc1Cl | i
Cc1cn2c3c(=O)[nH]c(=O)n(C)c3nc2n1CCN1CCc2ccccc2C1 | i
CN(CCO)CC1COCCN1C(=O)c1ccc(F)cc1Cl (stereo not given) | i
COc1ccc(-n2ccnc(NC(=O)c3ccco3)c2=O)cc1Cl | i
O=C(c1ccco1)N1CCN(CCn2cccn2)CC1 | i
Cc1ccc(-n2nnc(CO)c2C)cc1 | i
COc1cc(NC(=O)NCCCc2ccccc2)c2ncccc2c1 | i
Cc1ccc(NC(=O)CSc2nccnc2-n2nc(C)cc2C)cc1 | i
COC(=O)c1ccccc1NS(=O)(=O)c1c(C(=O)OC)sc2ccccc12 | i
Cc1cc(C)n(-c2ncc(NC(=O)Nc3cc(F)cc(F)c3)cn2)n1 | i
Cc1cc(=O)[nH]c(-n2nc(-c3cccs3)cc2NC(=O)C23CC4CC(CC(C4)C2)C3)n1 | i
CSc1nnc2n(CCC(=O)NCC(C)C)c(=O)c3ccccc3n12 | i
Cc1n[nH]c(C)c1S(=O)(=O)NCCn1nc(-n2cccn2)ccc1=O | i
Cc1ccc(N2CCCS2(=O)=O)cc1NC(=O)C(=O)NCc1ccccc1Cl | i
O=Cc1ccccc1-c1ccc(C(F)(F)F)cc1 | i
COc1ccccc1N1CCN(CCNS(C)(=O)=O)CC1 | i
CCc1ccc2nc(N(CCN3CCOCC3)C(=O)c3ccc(N4C(=O)CCC4=O)cc3)sc2c1 | i
CCOC(=O)COc1ccc2c(c1)O/C(=C\c1ccc(Cl)cc1)C2=O | i
O=C(Cc1cccs1)N(CCn1cccn1)c1nc2ccccc2s1 | i
Cc1cc(C)cc(NC(=O)c2c(N)n(/N=C\c3ccco3)c3nc4ccccc4nc23)c1 | i
Cc1ccc(S(=O)(=O)N2CCC(C(=O)Nc3nc4c(Cl)cccc4s3)CC2)cc1 | i
Further structures.
SMILES | GIRK2 activ
COc1ccc(Cl)cc1NC(=O)Nc1cnc(N2CCCC2)nc1 | i
CC1=C(C(=O)Nc2ccccc2C)C(c2ccccc2F)n2ncnc2N1 (stereo not given) | i
CC(Oc1ccccc1)C(=O)N1CCN(S(=O)(=O)C2CC2)CC1 (stereo not given) | i
CC(=O)C1CCC2C3CC=C4CC(O)CCC4(C)C3CCC12C (stereo not given) | i
CCCC(=O)Nc1c(-c2ccc3c(c2)OCO3)c(=O)c2ccccc2n1C | i
COc1cccc(S(=O)(=O)Nc2ccc(-n3nnc(C(=O)NC4CCCC4)n3)cc2)c1 | i
COc1ccc(-c2cc3c(=O)n(CC(=O)Nc4ccc(C)cc4)ccn3n2)cc1OC | i
CCc1ccccc1NC(=O)C1=Cc2cc(Cl)cc(OC)c2OC=C1 | i
Cc1ccnc(Nc2cc(N3CCN(C(=O)c4cccs4)CC3)nc(C)n2)c1 | i
CCc1ccccc1NC(=O)COc1cc(C)nc(-c2ccc(Cl)cc2)n1 | i
CC(=O)N1CCN(C(=O)c2csc(-c3cc4ccccc4[nH]3)n2)CC1 | i
Cc1nc(C)c(CNC(=O)Nc2ccc3c(c2)OCO3)s1 | i
O=C(NCC1CCN(S(=O)(=O)c2cccnc2)CC1)c1nc2ccccc2s1 | i
CC1CCN(c2nc3c(c(=O)n(Cc4ccccc4Cl)c(=O)n3C)n2C)CC1 | i
Cn1cnc(S(=O)(=O)NCc2nn(C3CCCC3)c3c2CCCC3)c1 | i
Cc1ccc(Cn2c(=O)c3c(nc(N4CCCCC4)n3C)n(C)c2=O)cc1 | i
O=C(CSc1ccc(-c2nc(-c3ccccc3)no2)cn1)NC1CCCCC1 | i
Cc1ccc(C(=O)Nc2c(C(=O)N3CCN(c4ccccc4)CC3)[nH]c3ccccc23)cc1 | i
CCSc1ccccc1C(=O)NCC(c1cn(C)c2ccccc12)N(C)C (stereo not given) | i
Cc1nn(C2CCS(=O)(=O)C2)c(C)c1N1CCN(C(=O)CCS(=O)(=O)c2ccccc2)CC1 (stereo not given) | i
Cc1cc(C(F)(F)F)nc(CCNC(=O)C2CC2)n1 | i
Cc1cc(C)cc(C(=O)N2CCN(S(=O)(=O)c3cc4c5c(c3)CCN5C(=O)CC4)CC2)c1 | i
COC(=O)Nc1nc2ccc(Oc3ccc(NC(=O)Nc4cc(C(F)(F)F)ccc4F)cc3)cc2s1 | i
COC(=O)c1ccccc1NC(=O)Cn1cnc2c(sc3cccc(F)c32)c1=O | i
O=C(Nc1cnc(Oc2ccccc2F)nc1)c1ccc(F)cc1F | i
O=C(N1CCC(Oc2ccc(C(F)(F)F)cn2)CC1)C1(c2cccs2)CCCC1 | i
COCCCn1cnc2c(-c3ccccc3)cn(CC(=O)Nc3cccc(C)c3C)c2c1=O | i
Cc1ccc(Cl)cc1N1CCN(C(=O)c2coc(NC(=O)C3CC3)n2)CC1 | i
CC1CCN(c2nccnc2Oc2ccc(C(=O)N3CCN(c4ccccc4)CC3)cc2)CC1 | i
O=C(Cn1cnnn1)Nc1cc(-n2cccn2)ncn1 | i
CCSc1nnc(NC(=O)CN2CCC(COCc3ccc(Cl)cc3)CC2)s1 | i
CS(=O)(=O)N1CCCc2ccc(NC(=O)C(=O)NCC3CCN(S(=O)(=O)C4CC4)CC3)cc21 | i
O=S(=O)(Nc1cnc(N2CCN(c3ccccn3)CC2)nc1)c1ccccc1Cl | i
COC(=O)c1scc(-c2ccccc2)c1S(=O)(=O)Nc1ccc(C)cc1C | i
O=C(Nc1ccc2c(c1)OCO2)Nc1nnc(Cc2ccccc2)o1 | i
CCOC(=O)CCC(=O)N1CC(c2nc(Cc3ccccc3)no2)C1 | i

Shown field by field: entries from further up.
COC(=O)c1scc(-c2ccccc2)c1S(=O)(=O)Nc1ccc(C)cc1C
  GIRK2 activ: i

CC1CCN(c2nccnc2Oc2ccc(C(=O)N3CCN(c4ccccc4)CC3)cc2)CC1
  GIRK2 activ: i

O=C(Cn1cnnn1)Nc1cc(-n2cccn2)ncn1
  GIRK2 activ: i

The list goes on.
SMILES | GIRK2 activ
CCN(CC)CCN1C(=O)c2oc3cc(C)c(C)cc3c(=O)c2C1c1cccc(OC)c1 (stereo not given) | i
Cn1c(C2CCC(CNC(=O)c3cc(C4CC4)on3)CC2)nc2ccccc21 (stereo not given) | i
Cc1c(CNC(=O)c2cnccn2)sc2nc(-c3ccc(F)cc3)cn12 | i
OCc1nc2ccccc2n1CCCCOc1ccccc1Cl | i
CCOc1ccccc1NC(=O)CN1CCN(Cc2nc3ccccc3[nH]2)CC1 | i
CC(=O)Nc1c2c(nn1CC(=O)NCc1ccc(F)cc1)CSC2 | i
O=C(Cc1noc2ccccc12)N1CC(c2nc(-c3ccc[nH]c3=O)no2)C1 | i
O=c1ccc(-c2nc(-c3cccc(F)c3)no2)cn1Cc1cc(F)cc(F)c1 | i
COCCn1nnn(-c2ccc(NC(=O)/C=C/c3ccccc3)cc2)c1=O | i
CC1=NN(C(C)C)c2nc3c(c(=O)n(CC(C)C)c(=O)n3C)n2C1 | i
CN1CCOc2ccc(NC(=O)/C=C/c3ccco3)cc2C1=O | i
CCn1c(-n2nc(C)cc2C)nc2c1c(=O)n(CC(N)=O)c(=O)n2C | i
